HTT promoter inh = Primary qHTS for Identification of Small Molecule Inhibitors of Huntingtin Promoter Activity. HEK293 HTT promoter firefly luciferase reporter (activity 0% = vehicle and -100% = no light), 24 h. Potency, µM (titrated, usually from 57.5 µM), for the others: top-dose activity change, negative = inhibition, most hits filed as inhibitors. 0.93% of 48,000 active; active = well fitted inhibition curve with a large enough effect; inconclusive = small, poorly fitted or top-dose-only effect; inactive = no such curve, though single readings can be large or run the other way; note: nearly all actives have a fitted effect of over 50% in size
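Luminescence was read after Dual-Glo reagent and a 10 min room-temperature incubation. Values were normalized to vehicle (0% activity) and zero RLU (-100% activity). Reporter HEK293 cells had been exposed to compounds (up to 57.5 uM final) for 24 h.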
PMP22 txn = Cell-based coincidence reporter assay to measure PMP22 gene transcription in S16 Pmp22-F2sN cells - Primary screen; S16 Pmp22-F2sN Schwann cells (luciferase reporters placed in the Pmp22 gene), FLuc/NLuc coincidence luminescence, 24 h; Potency, µM (titrated, usually from 57.5 µM), without a hit: top-dose activity change, negative = inhibition, actives largely listed as inhibitors; 2% of 43,000 active; AID 1508649, 2021; active = clear falling dose curves in both reporters; inconclusive = both reporters move, but less clearly or upward; inactive = either reporter flat; the % is the NLuc reporter signal; note: % is set by controls: 0 for no effect and ±100 for the full control effect; some results filed as inactive show a strong effect at the top dose
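Transcriptional readout in edited S16(c9) cells: two luciferases reported from the Pmp22 locus, measured in turn after 24 h compound incubation.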
Active calls of the source: *; [ ] = remark or other dose. Potency is the fitted concentration of half-maximal effect.

How did O=C(NCCSc1c(-c2ccc(Cl)cc2)[nH]c2ccccc12)c1ccc(S(=O)(=O)N2CCOCC2)cc1 do in these assays?
HTT promoter inh: inconclusive; PMP22 txn: -10.7%

Results for CC(C)C(=O)N1c2ncnn2C2(CCCCC2)[C@@H]2CCCC[C@@H]21 ?
HTT promoter inh: inconclusive; PMP22 txn: -8.4%

Results for Cc1cccc(NC(=O)Cn2cc(S(=O)(=O)Cc3ccccc3Cl)c3ccccc32)c1 ?
HTT promoter inh: inconclusive; PMP22 txn: -23.6%

What do the screens show for `COc1ccc(-c2nc3nc(C)cc(Nc4ccc(C(C)=O)cc4)n3n2)cc1`?
HTT promoter inh: -11.2%; PMP22 txn: -7.3%

What do the screens show for `CCCOc1cccc(NC(=O)c2c(-c3ccccc3Cl)noc2C)c1`?
HTT promoter inh: inconclusive; PMP22 txn: inconclusive

What do the screens show for `CCN(CC)CC(=O)Oc1ccc(NC(C)=O)cc1`?
HTT promoter inh: 0.0%

What do the screens show for `CCOC(=O)Cc1ccc(NC(=O)Nc2c[nH]c(=O)[nH]c2=O)cc1`?
HTT promoter inh: -7.6%; PMP22 txn: 8.8%

How did CCOc1ccccc1C(=O)Nc1ccc(S(=O)(=O)N2CCCCC2c2cccnc2)cc1 (centres undefined) do in these assays?
HTT promoter inh: inconclusive; PMP22 txn: inconclusive

How did O=c1[nH]c(=O)n([C@H]2C[C@@H](O)[C@@H](CO)O2)cc1C(F)(F)F do in these assays?
HTT promoter inh: -12.2%

How did CCN1CCN(C(=O)c2cnn(-c3ccc(F)cc3F)c2C2CCN(C(=O)OC(C)(C)C)CC2)CC1 do in these assays?
HTT promoter inh: -4.2%; PMP22 txn: -6.6%

How did CC(C)CC(=O)Nc1ccc2nc(SCC(=O)N3CCOCC3)sc2c1 do in these assays?
HTT promoter inh: inconclusive; PMP22 txn: -0.8%

What do the screens show for `Cc1ccc(Cn2c(=O)n(CCCCC(=O)NCc3ccccc3Cl)c(=O)c3ccccc32)cc1`?
HTT promoter inh: inconclusive; PMP22 txn: inconclusive

How did Cc1ccc(N2CCN(S(=O)(=O)c3c(C)[nH]c(=O)[nH]c3=O)CC2C)cc1 (centres undefined) do in these assays?
HTT promoter inh: -11.3%; PMP22 txn: 23.4%

What do the screens show for `CCOC(=O)c1c(C)[nH]c(C)c1S(=O)(=O)N1CCCC(C(=O)Nc2cccc(C)n2)C1` (centres undefined)?
HTT promoter inh: -19.5%; PMP22 txn: -0.6%

What do the screens show for `CCOc1ccc(NC(=O)C2CCC(CNS(=O)(=O)c3ccc4c(c3)CCCC(=O)N4)CC2)cc1` (centres undefined)?
HTT promoter inh: -20.1%; PMP22 txn: -16.6%

What do the screens show for `O=C(CSc1nc(-c2ccccc2)nc2c1CCCC2)c1ccc(Cl)cc1`?
HTT promoter inh: -6.4%; PMP22 txn: -14.9%

What do the screens show for `Cc1ccccc1-c1noc(-c2cccnc2N2CCN(c3ccccc3)CC2)n1`?
HTT promoter inh: -11.2%; PMP22 txn: -9.5%

Results for O=C1OC2(c3ccc(O)cc3Oc3cc(O)ccc32)c2ccccc21 ?
HTT promoter inh: 9.3%

Results for CCOc1ccc(OCC)c(NC(=O)c2cc(CN3CCOCC3)on2)c1 ?
HTT promoter inh: 13.2%; PMP22 txn: -11.0%

How did COc1cccc(CNC(=O)CSc2n[nH]c(-c3ccccc3Cl)n2)c1 do in these assays?
HTT promoter inh: -7.2%; PMP22 txn: -1.2%

What do the screens show for `CCCOc1ccc(C(=O)Nc2cccc(-c3nc4ccccc4[nH]3)c2)cc1`?
HTT promoter inh: -0.1%; PMP22 txn: inconclusive

Results for COc1ccc(OC)c(CNS(=O)(=O)c2c(C(=O)N3CCCCCC3)c(C)n(C)c2C)c1 ?
HTT promoter inh: 9.1%; PMP22 txn: inconclusive

How did Cc1ccc(Nc2ncnc3sc4c(c23)CCC(C)C4)cc1C (centres undefined) do in these assays?
HTT promoter inh: -5.3%; PMP22 txn: 2.5%

Results for Cc1ccc(-c2nc(C)c(CCNS(=O)(=O)c3ccccc3F)s2)cc1 ?
HTT promoter inh: -12.4%; PMP22 txn: -65.7%

How did O=C(CN1C(=O)COc2ccc(S(=O)(=O)N3CCCCCC3)cc21)N1CCN(c2cccc(Cl)c2)CC1 do in these assays?
HTT promoter inh: inconclusive; PMP22 txn: inconclusive

Results for CCn1cc(C(=O)NCCCOC(C)C)c(=O)c2cc(S(=O)(=O)N3CCOCC3)ccc21 ?
HTT promoter inh: 1.7%; PMP22 txn: -8.4%

How did COc1cc(-c2nc(-c3ccccc3)c(-c3ccc(Br)cc3)[nH]2)cc(OC)c1O do in these assays?
HTT promoter inh: -14.8%; PMP22 txn: -47.9%

What do the screens show for `Cc1ccc(/C=C/c2onc(C)c2S(=O)(=O)N2CCC(C(=O)N3CCOc4ccc(C)cc43)CC2)cc1`?
HTT promoter inh: -32.6%; PMP22 txn: -11.7%

Results for CC(=O)c1cccc(NC(=O)CSc2ncc3c(n2)-c2cc(Cl)ccc2N(Cc2ccccc2)S3(=O)=O)c1 ?
HTT promoter inh: -16.0%; PMP22 txn: 52.3%

What do the screens show for `Cc1ccc(S(=O)(=O)c2nnn3c2nc(N2CCN(c4ccccc4F)CC2)c2cc(Cl)ccc23)cc1C`?
HTT promoter inh: -11.1%; PMP22 txn: 1.9%

Results for Cc1cccc(Cn2nnc3c(=O)[nH]c(C4CCCN(C(=O)c5ccc(C(C)(C)C)cc5)C4)nc32)c1 (centres undefined) ?
HTT promoter inh: inconclusive; PMP22 txn: -22.6%

What do the screens show for `CCOc1ccc(OCC)c(NS(=O)(=O)c2cc(Br)cc3c2N(C(C)=O)C(C)C3)c1` (centres undefined)?
HTT promoter inh: inconclusive; PMP22 txn: -17.7%

Results for CC(=O)Nc1ccc(NC(=O)CC2Sc3ccccc3NC2=O)cc1 (centres undefined) ?
HTT promoter inh: 1.2%; PMP22 txn: 11.8%

Results for O=C(CSc1nc2ccccc2nc1Cc1ccccc1)N1CCN(c2ccccc2)CC1 ?
HTT promoter inh: -2.4%; PMP22 txn: 2.7%

Results for COc1cc(Nc2nc(SCc3cccc(Cl)c3)nc3ccccc23)cc(OC)c1 ?
HTT promoter inh: -19.3%; PMP22 txn: inconclusive

How did O=C(COc1ccc(Cl)cc1)NCC(c1ccco1)S(=O)(=O)c1ccccc1 (centres undefined) do in these assays?
HTT promoter inh: -20.3%; PMP22 txn: 3.8%

Results for CCC(=C(CC)c1ccc(O)cc1)c1ccc(O)cc1 ?
HTT promoter inh: inconclusive

How did Cc1cccc(C)c1OC(=O)CSc1nnc(-c2cccs2)o1 do in these assays?
HTT promoter inh: 3.0%; PMP22 txn: -19.2%

What do the screens show for `O=C(CN1C(=O)C2CCCCN2c2ccc(C(=O)N3CCCC3)cc21)NCc1cccc(F)c1` (centres undefined)?
HTT promoter inh: -4.3%; PMP22 txn: -10.9%

What do the screens show for `CCCCOc1ccc(C(C)NC(=O)CN2C(=O)CSc3ccc(S(=O)(=O)N4CCOCC4)cc32)cc1` (centres undefined)?
HTT promoter inh: -24.4%; PMP22 txn: inconclusive

How did CCc1nn2c(=O)cc(COC(=O)COc3ccc(OC)cc3)nc2s1 do in these assays?
HTT promoter inh: -13.8%; PMP22 txn: -18.9%

How did COc1ccc2c(c1)c(CC(=O)Nc1cccc(F)c1C)c(C)n2C(=O)c1ccc(Cl)cc1 do in these assays?
HTT promoter inh: -10.0%; PMP22 txn: 20.5%

What do the screens show for `COc1ccccc1NC(=O)CSc1nc(O)c(C/C=C/c2ccccc2)c(=O)[nH]1`?
HTT promoter inh: -16.9%; PMP22 txn: -34.6%

How did COc1cc(Cl)c(NC(=O)c2cc(S(=O)(=O)N3CCCCC3)c[nH]2)c(OC)c1 do in these assays?
HTT promoter inh: -19.6%; PMP22 txn: 4.9%

Results for CCc1ccc(C(=O)c2cn(CC(=O)Nc3cccc(OC)c3)c3cc4c(cc3c2=O)OCO4)cc1 ?
HTT promoter inh: -20.2%; PMP22 txn: -47.5%

How did COC(=O)c1ccccc1NC(=O)c1oc2ccc3c(c2c1C)C(=O)CC(C)(C)O3 do in these assays?
HTT promoter inh: -9.0%; PMP22 txn: -17.6%

Results for CCn1c(=O)n(-c2ccc(F)cc2)c(=O)c2sc3ccccc3c21 ?
HTT promoter inh: -5.5%; PMP22 txn: -17.8%

Results for O=C(O)COc1ccccc1C1Nc2ccccc2-c2nnc(SCc3ccc(Cl)cc3)nc2O1 (centres undefined) ?
HTT promoter inh: -23.9%; PMP22 txn: 3.4%

What do the screens show for `CC(=O)N1CCC(N(Cc2ccco2)C(=O)Nc2ccc(C)c(Cl)c2)CC1`?
HTT promoter inh: inconclusive; PMP22 txn: -4.6%

Results for CC(NC(=O)c1sc2ncccc2c1-n1cccc1)c1ccccc1 (centres undefined) ?
HTT promoter inh: -20.6%; PMP22 txn: 5.8%

Results for CCCCOC(=O)c1cccc(NC(=O)/C=C/c2ccccc2Cl)c1 ?
HTT promoter inh: inconclusive; PMP22 txn: inconclusive

Results for Cc1ccc(C)c(N2CCN(C(=O)CN3CCSc4ccccc43)CC2)c1 ?
HTT promoter inh: inconclusive; PMP22 txn: inconclusive

Results for Cc1ccc(C(=O)Nc2ccc(Br)cc2)cc1S(=O)(=O)N1CCOCC1 ?
HTT promoter inh: 20µM*; PMP22 txn: -61.2%

How did Cc1ccc(-c2nc3ccc(Cl)cn3c2Nc2ccccc2C)s1 do in these assays?
HTT promoter inh: 37.2%[activator]; PMP22 txn: -27.4%

Results for Cc1cccc(N2CCN(Cc3nnc(-c4ccc5c(c4)OCO5)o3)CC2)c1C ?
HTT promoter inh: -9.0%; PMP22 txn: -14.2%

How did CCc1ccc(-c2nn(CC(=O)NC3CCCCC3)c3c2cnc2ccc(F)cc23)cc1 do in these assays?
HTT promoter inh: -5.2%; PMP22 txn: -18.4%

How did COc1ccc(S(=O)(=O)c2cc3cc(C(C)(C)C)cc(O)c3oc2=O)cc1 do in these assays?
HTT promoter inh: inconclusive; PMP22 txn: -26.1%

How did N#C[C@H]1C[C@H]2C[C@@H]2N1C(=O)[C@@H](N)C12CC3CC(CC(O)(C3)C1)C2 do in these assays?
HTT promoter inh: -9.6%

Results for COc1cccc(NC(=O)Cn2c(=O)n(Cc3ccc(C(=O)NCc4ccc5c(c4)OCO5)cc3)c(=O)c3ccccc32)c1 ?
HTT promoter inh: -1.1%; PMP22 txn: -40.6%

What do the screens show for `Cc1cccc(CNC(=O)Cc2ccc(NC(=O)N3CCCCc4ccccc43)cc2)c1`?
HTT promoter inh: -25.6%; PMP22 txn: 7.8%

2 neighbouring entries out of the list so far, quoted:
Results for Cc1ccc(C)c(N2CCN(C(=O)CN3CCSc4ccccc43)CC2)c1 ?
HTT promoter inh: inconclusive; PMP22 txn: inconclusive

Results for Cc1ccc(C(=O)Nc2ccc(Br)cc2)cc1S(=O)(=O)N1CCOCC1 ?
HTT promoter inh: 20µM*; PMP22 txn: -61.2%

In the list so far, ten have an aryl thioether with sulfur outside any ring:
How did O=C(NCCSc1c(-c2ccc(Cl)cc2)[nH]c2ccccc12)c1ccc(S(=O)(=O)N2CCOCC2)cc1 do in these assays?
HTT promoter inh: inconclusive; PMP22 txn: -10.7%

How did CC(C)CC(=O)Nc1ccc2nc(SCC(=O)N3CCOCC3)sc2c1 do in these assays?
HTT promoter inh: inconclusive; PMP22 txn: -0.8%

What do the screens show for `O=C(CSc1nc(-c2ccccc2)nc2c1CCCC2)c1ccc(Cl)cc1`?
HTT promoter inh: -6.4%; PMP22 txn: -14.9%

How did COc1cccc(CNC(=O)CSc2n[nH]c(-c3ccccc3Cl)n2)c1 do in these assays?
HTT promoter inh: -7.2%; PMP22 txn: -1.2%

Results for CC(=O)c1cccc(NC(=O)CSc2ncc3c(n2)-c2cc(Cl)ccc2N(Cc2ccccc2)S3(=O)=O)c1 ?
HTT promoter inh: -16.0%; PMP22 txn: 52.3%

Results for O=C(CSc1nc2ccccc2nc1Cc1ccccc1)N1CCN(c2ccccc2)CC1 ?
HTT promoter inh: -2.4%; PMP22 txn: 2.7%

Results for COc1cc(Nc2nc(SCc3cccc(Cl)c3)nc3ccccc23)cc(OC)c1 ?
HTT promoter inh: -19.3%; PMP22 txn: inconclusive

How did Cc1cccc(C)c1OC(=O)CSc1nnc(-c2cccs2)o1 do in these assays?
HTT promoter inh: 3.0%; PMP22 txn: -19.2%

What do the screens show for `COc1ccccc1NC(=O)CSc1nc(O)c(C/C=C/c2ccccc2)c(=O)[nH]1`?
HTT promoter inh: -16.9%; PMP22 txn: -34.6%

Results for O=C(O)COc1ccccc1C1Nc2ccccc2-c2nnc(SCc3ccc(Cl)cc3)nc2O1 (centres undefined) ?
HTT promoter inh: -23.9%; PMP22 txn: 3.4%

No enrichment for hits; any-hit rate near 2.6%.
